Ecoli rRNA inh = reduced GFP signal of wild-type E. coli, primary screen, bacterial rRNA inhibitor project, GFP/RFP fluorescence, OD600, single point; E. coli WT GFP vs humanized-ribosome RFP mutants, 24 h; hits give low values; DMSO median 0, no signal -100; GFP signal change (wild-type ribosome), % (concentration not given with the values); hit rate 1.6% among 350,000; AID 720706, 2013;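 active means significant combined selectivity score with lowered wild-type GFP, culture density cut under 30%, mutant RFP and density less affected; inactive means any of these conditions unmet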; further: one replicate is shown; some compounds called inactive have numbers as strong as hits
ALR H2O2 inh = inhibitors of human ALR sulfhydryl oxidase, primary screen, biochemical, H2O2 detection, HRP-luminol luminescence, single point; inhibition, % (no concentration beside the values); hit rate 3.8% among 290,000; FAD-linked sulfhydryl oxidase ALR (Homo sapiens), P55789; AID 485317, 2010; purified ALR, DTT oxidation;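 active means mean and each replicate at 75% or more; inconclusive means only one of the two met; inactive means neither met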;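 further: stock transfer was 7.5 nL into about 7.5 µL; 0% = neutral wells and 100% = wells with inactivated enzyme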
Target sequence (P55789 whole entry, looked up): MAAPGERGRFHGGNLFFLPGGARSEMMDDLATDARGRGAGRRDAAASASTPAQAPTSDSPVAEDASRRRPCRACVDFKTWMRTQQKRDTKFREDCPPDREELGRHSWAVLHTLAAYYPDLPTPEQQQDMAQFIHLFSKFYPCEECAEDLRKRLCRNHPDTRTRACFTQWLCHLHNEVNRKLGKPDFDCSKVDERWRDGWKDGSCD
MLL AF4-AF9 inh = inhibitors of AF4 peptide binding to AF9, primary screen, biochemical, AlphaScreen, biotin-AF4 peptide, FLAG-AF9, single point; inhibition, % at 10 µM; hit rate 0.47% among 350,000;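 active means every replicate reaching a set inhibition limit, whatever the replicate mean, cut at about 25% in these data; inconclusive means mean inhibition reaches that limit but some replicates miss it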;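 further: 0% = plate neutral control median and 100% = total signal loss; the record names both 10 and 1 µM as test concentration; the first replicate is given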
Target sequence (P42568 whole entry, looked up): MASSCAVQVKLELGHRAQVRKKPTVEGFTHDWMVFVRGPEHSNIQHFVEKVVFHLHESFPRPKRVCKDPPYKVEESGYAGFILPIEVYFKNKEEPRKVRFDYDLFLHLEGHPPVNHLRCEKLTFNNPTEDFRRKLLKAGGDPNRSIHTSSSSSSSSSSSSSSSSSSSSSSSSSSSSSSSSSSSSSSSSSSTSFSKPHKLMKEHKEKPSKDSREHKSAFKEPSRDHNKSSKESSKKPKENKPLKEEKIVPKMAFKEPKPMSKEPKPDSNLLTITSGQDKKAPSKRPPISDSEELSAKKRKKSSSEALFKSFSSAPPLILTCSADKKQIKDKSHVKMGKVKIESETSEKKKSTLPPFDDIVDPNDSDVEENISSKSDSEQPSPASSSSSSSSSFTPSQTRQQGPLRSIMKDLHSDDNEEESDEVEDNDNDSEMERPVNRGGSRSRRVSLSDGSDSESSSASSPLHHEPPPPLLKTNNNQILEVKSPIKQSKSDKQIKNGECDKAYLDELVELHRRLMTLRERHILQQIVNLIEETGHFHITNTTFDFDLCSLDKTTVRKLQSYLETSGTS
HNF4A DNA FP = change in binding of human HNF4A to DNA, primary screen, biochemical, fluorescence polarization, FITC-DNA | Hepatocyte nuclear factor 4-alpha (Homo sapiens), P41235 | activity change, % at 10 µM | 1 h | hit rate 0.3% among 360,000; in the data active means activity change above about 30%, passing the limit was not always enough;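 further: controls were the assay level and a saturating level of protein; the project sought stronger binding though the title names inhibitors; some compounds called inactive have numbers as strong as hits; positive values seem to mean higher polarization but the record does not say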
Vif A3G = inhibitors of Vif binding to APOBEC3G peptide, primary screen, biochemical, TR-FRET, GST-Vif 1-94, biotin-A3G peptide, dose response retest (AID 1117319); Virion infectivity factor (Human immunodeficiency virus type 1 group M subtype B (isolate …; TR-FRET GST-Vif / biotin-A3G peptide binding; higher % means a stronger effect; test concentration not given here; strong numbers were not always called active; one-dose inhibition, %; IC50 in µM for titrated hits; hit rate 0.57% among 260,000;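 active means above the screen mean plus three standard deviations and confirmed in dose response; inconclusive means results disagree or hit not tested in dose response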;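 further: Vif residues 1-94 fused to GST binding biotinylated APOBEC3G peptide 110-148; 0% = full assay without inhibitor and 100% = GST in place of GST-Vif; retest series ran down from 100 µM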
FGF22 binding = binders of human FGF22 protein, primary screen, FGF22 synaptogenesis inhibitor project, biophysical, thermal shift, single point | Fibroblast growth factor 22 (Homo sapiens), Q9HCT0 | recombinant FGF22 thermal shift, SYPRO orange fluorescence; percent of sucrose octasulfate shift, DMSO zero | calls only at 9.99 µM | hit rate 1.5% among 340,000 | AID 651658, 2012;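 active means melting point raised past a set limit in the mean and every replicate; inconclusive means no clear call; three in four hits are not shown here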
Target sequence (Q9HCT0 whole entry, looked up): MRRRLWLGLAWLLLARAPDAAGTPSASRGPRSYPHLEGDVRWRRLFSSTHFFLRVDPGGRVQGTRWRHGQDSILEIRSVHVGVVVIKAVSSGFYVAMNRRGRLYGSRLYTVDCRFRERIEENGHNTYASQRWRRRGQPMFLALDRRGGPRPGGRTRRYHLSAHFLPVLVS
Ecoli growth = E. coli growth inhibition, primary screen, OD600; Escherichia coli growth, 23 h; hits give low values; OD600 absorbance (concentration not given with the values); hit rate 0.21% among 330,000; AID 1053175, 2014;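 active means OD600 absorbance below the run mean of sample wells minus 3.6 SD, in any replicate, cut at about 0.56 in these data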;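 further: stock transfer was 300 nL into about 60 µL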
Ecoli rRNA inh OD600 = also measured in Ecoli rRNA inh; calls as there; OD600 change, %; measured here: OD600 growth;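 optical density of the mix in the first replicate; 0 = DMSO median and -100 = no signal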
Ecoli rRNA inh RFP = second read-out of Ecoli rRNA inh, no call of its own (marks repeat the call); RFP signal change, %; measured here: RFP humanized mutant strains;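 first replicate; 0 = DMSO median and -100 = no signal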
Starred values were filed as active, the others as inactive; i = inactive; ? = inconclusive; · = not tested or not shown. The list is partial. The share of hits here may be higher or lower than overall.

SMILES | Ecoli rRNA inh | Ecoli rRNA inh OD600 | Ecoli rRNA inh RFP | ALR H2O2 inh | MLL AF4-AF9 inh | HNF4A DNA FP | Vif A3G | FGF22 binding | Ecoli growth
CCOc1ccccc1NC(=O)/C=C/C(N)=O | 4 | 2 | -5.8 | 8 | 4.8 | 0.0 | -5% | i | 0.7
CC(=O)N(C)C[C@@H]1Oc2cc(C#Cc3ccc(F)cc3)ccc2S(=O)(=O)N([C@H](C)CO)C[C@@H]1C | -2 | -11 | 2.7 | · | 1.1 | · | · | i | ·
COc1cccc(-c2nc3ccc(C(=O)NC(C)Cc4cccnc4)cc3o2)c1 (configuration not stated) | -31 | -52 | 1.2 | 9 | -0.2 | 2.5 | · | i | 0.65
CCCCC(=O)N(c1ccc(OCC)cc1)C1C=CS(=O)(=O)C1 (configuration not stated) | · | · | · | 0 | · | 5.4 | 23% | · | 0.67
Clc1ccc(-c2nnc(-c3ccccc3)o2)c(Cl)c1 | · | · | · | 1 | · | 2.9 | -1% | · | 0.74
COC(=O)c1ccc(OCCOCCOc2cccc3ccc(C)nc23)cc1 | · | · | · | 15 | 1.0 | 3.6 | · | i | 0.69
OC[C@H]1[C@@H](c2ccc(-c3ccccc3F)cc2)[C@@H]2CN(Cc3cccnc3)CCCCN12 | 3 | 3 | 2.2 | · | 5.9 | · | · | i | ·
O=C(Nc1ccccc1C(=O)O)c1ccc2c(c1)C(=O)N(c1cccc([N+](=O)[O-])c1)C2=O | 19 | 24 | 0.1 | 7 | -4.2 | 2.1 | 1% | i | 0.71
C[C@H]1CN([C@@H](C)CO)C(=O)Cc2cc(N(C)C)ccc2O[C@@H]1CN(C)C(=O)Nc1ccc(F)cc1 | 2 | 8 | -0.7 | · | -3.5 | · | · | i | ·
C[C@@H]1CCCCO[C@@H](CN(C)C(=O)Nc2cccc3ccccc23)[C@H](C)CN([C@H](C)CO)C(=O)c2cc(NC(=O)Nc3ccc4c(c3)OCO4)ccc2O1 | 0 | 12 | -1.7 | · | 2.6 | · | · | i | ·
O=C(NC(=S)N(CC1CCC1)CC1CCCO1)c1cccc([N+](=O)[O-])c1 (configuration not stated) | -1 | 8 | -7.7 | -2 | 4.6 | 1.7 | -5% | i | 0.66
Cc1c(NC(=O)c2cccnc2Cl)c(=O)n(-c2ccccc2)n1C | · | · | · | -6 | · | -0.2 | 4% | · | 0.68
COc1ccc(S(=O)(=O)Nc2cccc3c2O[C@H](CN(C)Cc2ccc(Oc4ccccc4)cc2)[C@@H](C)CN([C@@H](C)CO)C3=O)cc1 | 0 | 3 | 0.4 | · | 3.5 | · | · | i | ·
O=C(NC1CCCc2ccccc21)c1ccc(S(=O)(=O)N2CCOCC2)cc1 (configuration not stated) | 6 | -4 | -1.5 | -7 | 1.2 | 0.8 | · | i | 0.7
Cc1ccc(C)c(NC(=S)NCC(c2cccnc2)N2CCOCC2)c1 (configuration not stated) | 16 | 10 | -4.5 | -10 | -3.2 | -1.8 | · | i | 0.7
COc1ccc(Nc2nc(N)c([N+](=O)[O-])c(NCc3ccccc3)n2)cc1 | -1 | 7 | -1.1 | -4 | 1.2 | 3.5 | 20% | i | 0.67
COc1cccc(OCCCCN2CCCCC2)c1 | · | · | · | -27 | · | 0.2 | 0% | · | 0.7
CC(C)c1cn(CC[C@@H]2CC[C@@H](NS(=O)(=O)c3ccc(Cl)cc3)[C@H](CO)O2)nn1 | -1 | 0 | -3.5 | · | -2.4 | · | · | i | ·
O=S(=O)(c1ccccc1)c1cccc(S(=O)(=O)N2CCCCC2)c1 | · | · | · | · | · | -1.2 | -3% | · | 0.71
COc1ccc(NC(=O)N(C)C[C@@H]2Oc3ncc(C#C[C@H](C)O)cc3C(=O)N([C@H](C)CO)C[C@H]2C)cc1 | 5 | -6 | -0.3 | · | 1.3 | · | · | i | ·
O=C(/C=C/c1cccc([N+](=O)[O-])c1)NCCN1CCOCC1 | 11 | 15 | -7.7 | -7 | 2.3 | -3.5 | 3% | i | 0.68
Cc1noc(C)c1NC(=O)Nc1ccc2c(c1)C(=O)N([C@H](C)CO)C[C@@H](C)[C@@H](CN(C)Cc1ccccc1)O2 | 3 | 10 | -0.4 | · | 0.2 | · | · | i | ·
Cc1nnc(SCC2=C(C(=O)O)N3C(=O)C(NC(=O)Cc4ccccc4)C3SC2)s1 (configuration not stated) | -1 | 2 | -2.1 | -2 | -4.9 | -3.2 | 7% | i | 0.6
CCOc1ccc(Cl)cc1CNCCNCCO | 19 | 2 | -0.6 | -2 | 10.0 | 0.5 | -4% | i | 0.67
CC(=O)Nc1ccccc1NC(=O)c1ccccc1 | 16 | 7 | 3.7 | 0 | -5.5 | -1.1 | -4% | i | 0.7

Next part; the last 4 above are carried over.
SMILES | Ecoli rRNA inh | Ecoli rRNA inh OD600 | Ecoli rRNA inh RFP | ALR H2O2 inh | MLL AF4-AF9 inh | HNF4A DNA FP | Vif A3G | FGF22 binding | Ecoli growth
Cc1noc(C)c1NC(=O)Nc1ccc2c(c1)C(=O)N([C@H](C)CO)C[C@@H](C)[C@@H](CN(C)Cc1ccccc1)O2 | 3 | 10 | -0.4 | · | 0.2 | · | · | i | ·
Cc1nnc(SCC2=C(C(=O)O)N3C(=O)C(NC(=O)Cc4ccccc4)C3SC2)s1 (configuration not stated) | -1 | 2 | -2.1 | -2 | -4.9 | -3.2 | 7% | i | 0.6
CCOc1ccc(Cl)cc1CNCCNCCO | 19 | 2 | -0.6 | -2 | 10.0 | 0.5 | -4% | i | 0.67
CC(=O)Nc1ccccc1NC(=O)c1ccccc1 | 16 | 7 | 3.7 | 0 | -5.5 | -1.1 | -4% | i | 0.7
COCCOC(=O)C1=C(C)NC(=O)NC1c1cccc(F)c1 (configuration not stated) | 4 | 6 | -3.5 | -7 | 0.1 | 2.5 | 1% | i | 0.69
C[C@H](CO)N1C[C@H](C)[C@H](CN(C)Cc2ccc(-c3ccccc3)cc2)Oc2c(NC(=O)Nc3ccc(F)cc3)cccc2C1=O | -6 | -13 | -0.2 | · | 5.0 | · | · | i | ·
Cc1cc(=O)oc(C)c1C(=O)OCC(=O)c1ccccc1 | 8 | -3 | 4.5 | -3 | · | 1.0 | 33% | · | 0.65
O=C(Nc1ccccc1C(=O)O)c1cc(S(=O)(=O)NCc2ccccc2)ccc1Cl | -2 | -1 | -0.9 | · | -3.0 | 0.5 | · | i | 0.69
O=[N+]([O-])c1ccc(NC2CCCCC2)nc1 | -17 | -30 | 27 | · | 1.0 | 1.0 | 5% | i | 0.66
CO[C@@H]1CN(C)C(=O)c2ccc(NC(=O)C3CCOCC3)cc2OC[C@H](C)N(C(=O)c2ccccc2)C[C@H]1C | 1 | -4 | 1.6 | · | -1.3 | · | · | i | ·
COc1ccc(CCN(Cc2cccs2)S(=O)(=O)c2ccc(S(=O)(=O)N(C)C3CCCCC3)cc2)cc1OC | · | · | · | -4 | · | 1.6 | · | · | 0.71
O=C1c2c(Cl)c(Cl)c(Cl)c(Cl)c2C(=O)N1c1nccs1 | 4 | 10 | 0.7 | · | -0.8 | 1.2 | -2% | i | 0.71
CN(C)c1ccc(N2[C@@H](CC(=O)O)c3cc(C(F)(F)F)ccc3S2(=O)=O)cc1 | 2 | 4 | 5.5 | 41 | -4.4 | 3.9 | · | i | ·
COc1cccc(NC(=O)C2(C)CCCN2C(=O)C(C)C)c1OC (configuration not stated) | 12 | 13 | -1.2 | · | -1.2 | 9.5 | · | i | ·
O=S(=O)(Nc1ccccc1F)c1ccc2nsnc2c1 | · | · | · | -7 | · | 1.6 | -3% | · | 0.64
Cc1ccc(-c2nnc(SCC(=O)N3CCCC3)o2)cc1 | · | · | · | -1 | · | 0.5 | 2% | · | 0.74
CN1C(=O)c2cc(NC(=O)C3CC3)ccc2OC[C@@H]2O[C@H](CC(=O)NCC3CCCCC3)CC[C@H]21 | 5 | 4 | -0.4 | · | -0.9 | · | · | i | ·
CCOC(=O)c1c(N/N=C/c2cccnc2)n[nH]c1C | -4 | -1 | -2.2 | 49 | · | -3.1 | 2% | i | ·
Cc1ccc(S(=O)(=O)Nc2cccc3c2O[C@H](CN(C)S(C)(=O)=O)[C@H](C)CN([C@H](C)CO)C3=O)cc1 | 4 | 2 | -1.1 | · | -1.4 | · | · | i | ·
O=C(c1cccnc1)N1CC[C@@H]2[C@H](CO)Nc3ccc(C#Cc4cccnc4)cc3[C@@H]21 | -1 | 7 | -2.5 | · | -2.9 | · | · | i | ·
CC(=O)Oc1cc(C)c(Cl)c2c(OC(C)=O)cc(C(C)=O)c(O)c12 | 2 | 5 | 8.4 | · | 6.6 | · | · | i | ·
Cc1ccc(NC(=O)Cc2cc(C(=O)O)c3ccccc3n2)c(C)c1 | 4 | 4 | -0.7 | 2 | -0.1 | 2.8 | · | i | 0.68
O=C(NCC[C@H]1CC[C@@H](NS(=O)(=O)Cc2ccccc2)[C@@H](CO)O1)C1CC1 | 1 | 3 | -1.9 | · | -1.2 | · | · | i | ·
CCCNC(=O)N1CC2(C1)[C@@H](c1ccccc1)[C@@H](CO)N2Cc1cccc(Cl)c1 | -6 | -17 | 5.7 | · | 1.8 | · | · | i | ·
COc1ccc(CN(C(=O)c2cc(=O)c3ccccc3o2)C2CCS(=O)(=O)C2)cc1 (configuration not stated) | 5 | 0 | -2.4 | -14 | 1.3 | -1.3 | 2% | i | 0.72
Cc1ccccc1NC(=O)CC(C)S(=O)(=O)c1ccc2c(c1)NC(=O)CO2 (configuration not stated) | 6 | 9 | -1.3 | 1 | -0.8 | -1.8 | · | i | 0.65
Cc1c(N(C)CS(=O)(=O)O)c(=O)n(-c2ccccc2)n1C | 3 | 12 | 6.0 | 42 | ? | -0.3 | · | i | 0.73
O=C(Cc1cccs1)Nc1cccc(C(=O)Nc2ccc(C(=O)O)cc2)c1 | 10 | 5 | -1.5 | -16 | -1.8 | -3.6 | · | i | ·
COC(=O)[C@]12C[C@H](CC(=O)N3CCN(C(=O)c4ccco4)CC3)C(=O)N(Cc3ccccc3)C1=C[C@H](C(C)(C)C)O[C@@H]2C | -3 | -10 | 4.1 | · | 5.4 | · | · | i | ·
O=C(c1ccccc1)c1ccc2nc(N3CCN(C(=O)c4ccco4)CC3)c3nncn3c2c1 | -6 | -6 | 10 | 57 | -4.4 | -2.5 | -17% | i | 0.79
CC(NC(=S)NNS(=O)(=O)c1ccc(C(C)(C)C)cc1)c1ccccc1 (configuration not stated) | -38 | -39 | 7.1 | 13 | 11 | 0.2 | -6% | i | 0.68

Compound profiles, as listed above. Values in the order: Ecoli rRNA inh, Ecoli rRNA inh OD600, Ecoli rRNA inh RFP, ALR H2O2 inh, MLL AF4-AF9 inh, HNF4A DNA FP, Vif A3G, FGF22 binding, Ecoli growth
Cc1ccccc1NC(=O)CC(C)S(=O)(=O)c1ccc2c(c1)NC(=O)CO2 (configuration not stated) across the screens: 6, 9, -1.3, 1, -0.8, -1.8, ·, i, 0.65
C[C@H](CO)N1C[C@H](C)[C@H](CN(C)Cc2ccc(-c3ccccc3)cc2)Oc2c(NC(=O)Nc3ccc(F)cc3)cccc2C1=O across the screens: -6, -13, -0.2, ·, 5.0, ·, ·, i, ·

Compound activity deposited in PubChem by several laboratories.
